Screens: PubChem BioAssay, National Center for Advancing Translational Sciences (NCATS)
GLA inh pH 4.5 = inhibitors of human alpha-galactosidase A at pH 4.5; purified enzyme, 4-MU-alpha-Gal fluorescence, pH 4.5; activity change, negative = inhibition, % at 105 µM; 230,000 tested, under 10 active; inconclusive = small, poorly fitted or top-dose-only inhibition, or a rising curve; inactive = flat fitted curve, though single readings scatter; no compound was filed as active;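 further: 0% = full activity with enzyme and -100% = basal without enzyme; dose as in the result columns while the protocol names 77 µM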
Target sequence (P06280 whole entry, looked up): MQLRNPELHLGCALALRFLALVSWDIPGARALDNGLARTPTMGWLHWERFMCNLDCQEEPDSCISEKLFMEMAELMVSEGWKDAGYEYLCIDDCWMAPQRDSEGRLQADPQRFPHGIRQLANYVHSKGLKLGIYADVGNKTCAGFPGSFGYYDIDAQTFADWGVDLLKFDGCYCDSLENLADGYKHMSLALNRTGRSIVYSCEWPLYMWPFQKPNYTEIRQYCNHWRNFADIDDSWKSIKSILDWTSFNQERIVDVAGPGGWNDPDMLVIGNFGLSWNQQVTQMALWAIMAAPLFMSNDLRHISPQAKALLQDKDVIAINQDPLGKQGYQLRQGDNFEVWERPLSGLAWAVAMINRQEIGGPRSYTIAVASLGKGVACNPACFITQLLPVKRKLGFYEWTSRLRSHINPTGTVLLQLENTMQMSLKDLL
* = called active by the depositor; & = joins results of further samples. Not all compounds are listed. The share of hits here may be higher or lower than overall.

SMILES,GLA inh pH 4.5
COC(=O)c1ccc(C(NC(=O)OCc2ccccc2)/C(F)=C/[C@@H](C)C(=O)NCCN2CCOCC2)cc1 (some centres undefined),-6.6
COC(=O)c1ccc(C(/C=C/[C@@H](C)C(=O)NCCc2c[nH]c3ccccc23)NC(=O)OCc2ccccc2)cc1 (some centres undefined),-2.8
COC(=O)N1C(C2CC2)=Cc2ccccc2C1CC(C)=O (centres undefined),-1.0&4.6
CC1(C)[C@@H](O)CC[C@]2(C)C3C(=O)C=C4C5C[C@@](C)(C(=O)O)CC[C@]5(C)CC[C@@]4(C)[C@]3(C)CC[C@@H]12 (some centres undefined),1.0
CCCCCC1=C2CNC(Cc3ccccc3)(C(=O)OC)C=C2C(C)C1=O (centres undefined),-13.3
FC(F)(F)c1ccccc1-c1cncnc1Nc1ccccc1,-1.7
CC(=O)N1C2(C=CC1(C)C(=O)NCCN1CCOCC1)CCCCC2 (centres undefined),-2.6
CO[C@@H]1[C@@H](OC(N)=O)[C@@H](O)[C@H](Oc2ccc3c(O)c(NC(=O)c4ccc(O)c(CC=C(C)C)c4)c(=O)oc3c2C)OC1(C)C,-6.7
CN(C)c1ccc(C(=C2C=CC(=[N+](C)C)C=C2)c2ccc(N(C)C)cc2)cc1,-6.9
COC(=O)/C=C\c1cc(O)ccc1O,-21.6
COc1ccc(-c2nc3c(c4c2C[C@H](c2ccccc2)OC4)CN(S(=O)(=O)c2c(C)noc2C)CC3)c(C)c1,11.4
COc1ccc(C(O)C2=CCCC2=O)cc1 (centres undefined),-2.4&0.2
CC(=O)N[C@H](CS)C(=O)O,8.3
N#Cc1ccc(CS(=O)(=O)c2nnnn2C2CCCCC2)cc1,-4.0
CCCCS(=O)(=O)N1C2=NC(C(=O)OC)=C(C(=O)OC)[C@@H]3N(Cc4ccccc4)c4ccccc4[C@]23C[C@H]1C(=O)OC,7.1
COc1cccc(-c2oc3ccccc3c(=O)c2O)c1,-13.6
COc1ccc2c(c1)OC(=O)CC2c1ccccc1C (centres undefined),-7.9
COC1=C2C[C@H](C)C[C@H](OC)[C@H](O)[C@@H](C)/C=C(/C)[C@H](OC(N)=O)[C@@H](OC)/C=C\C=C(\C)C(=O)NC(=CC1=O)C2=O,-13.7
CC1CCC2C(C)(C)C3CC12CC[C@]3(C)O (some centres undefined),7.4
O=c1[nH]ccc2c(S(=O)(=O)N3CCCNCC3)cccc12,-5.6
C[C@@H](O)CCC[C@H](O)/C=C/[C@H]1[C@H](O)CC(=O)[C@@H]1C/C=C\CCCC(=O)O,-0.8
C[C@@H](C(=O)NCCF)[C@H]1C[C@]1(C)[C@H](NC(=O)OCc1ccccc1)c1ccccc1,-15.8
COC(=O)[C@@]1(Cc2ccc(F)cc2)[C@H]2c3cc(C(=O)N4CCCC4)n(Cc4c(CO)[nH]cc(C)c4=O)c3C[C@H]2CN1C(=O)c1ccccc1,-2.4
C=CCc1ccc(O)c(OC)c1,-7.9&1.9
COc1ccc(-c2coc3cc(O)ccc3c2=O)c(O)c1O,-1.6
CCCCc1nc2c(c3c1C[C@H](C)OC3)CN(C(=O)c1cc(I)ccc1F)CC2,5.6
COc1ccc(-c2c(O)c3c(OC)c4c(cc3oc2=O)OC(C)(C)C=C4)cc1,-4.7
COc1cc2c(cc1OC)C(c1c[nH]c3ccccc13)NCC2 (centres undefined),-11.0
CC1=C(/C=C/C(C)=C\C=C\C(C)=C\C(=O)O)C(C)(C)CCC1,-10.8&2.3
COC(=O)C(C(=O)OC)[C@@H](NC(=O)OCc1ccccc1)c1ccccc1,2.9
COc1ccc(C2=CC3=CC(=O)C(C)(O)C(=O)C3=CO2)cc1 (centres undefined),0.9
CCN(CC)CCCCC1CCN(CC(=O)N2c3ccccc3C(=O)Nc3cccnc32)CC1,-0.1
NCCC(O)(P(=O)(O)O)P(=O)(O)O,-2.8
NCC1OC(OC2C(N)CC(N)[C@@H](O)[C@@H]2OC2O[C@H](CO)[C@@H](O[C@@H]3OC(CN)C(O)C(O)C3N)C2O)C(N)C(O)C1O (some centres undefined),0.6
COC(=O)c1ccc(C(NC(=O)c2ccco2)[C@]2(C)C[C@H]2C2CCCCC2)cc1 (some centres undefined),-3.4
CC(C)C[C@@H](CC(=O)N[C@H](CC(=O)N[C@@H]1CCNC[C@H]1C(=O)N[C@H](CC(=O)N[C@@H](CCC(=O)O)CC(=O)O)CC(C)C)C(C)C)NC(=O)[C@@H]1CCCC[C@H]1N,-7.8
CCCCCC(C)N (centres undefined),2.8
NC1(C(=O)O)C[C@H](C(=O)O)[C@H](C(=O)O)C1 (some centres undefined),-16.3
COC(=O)c1nnc(SC)nc1C(=O)OC,-4.3
O=C1C=C(NCCO)C(=O)c2cnccc21,-12.5
COC(=O)C(C(=O)OC)[C@@H]1c2ccccc2[C@H]2C(=C[C@@H](C)[C@H]3C(=O)N(c4ccccc4)C(=O)[C@H]32)N1C(=O)OC,-1.5
COC(=O)c1ccc(C(NC(=O)OCc2ccccc2)/C(F)=C/[C@@H](C)C(=O)N[C@@H](CO)Cc2ccccc2)cc1 (some centres undefined),-1.6
Cc1nc(NCc2ccccc2)c2nc(-c3ccccc3)n(C(C)CN(C)C)c2n1 (centres undefined),-13.2
CCCc1cc2c(n1CCc1ccc(Cl)cc1)C(C)C1CN(C(=O)c3ccccc3)C(C)(C(=O)OC)C21 (centres undefined),-5.2
CCCCCCCCCCCCCCC(F)C(=O)O (centres undefined),-8.7
CC(C)=CCC/C(C)=C/CC/C(C)=C/CSc1ccccc1C(=O)O,-2.8
N[C@@H](CO)C(=O)NNCc1ccc(O)c(O)c1O,6.6
CCN(CC)CCCCn1c(-c2ccccc2)nc2c(N(CCOC)CCOC)nc(C)nc21,-2.7
COC(=O)C1=C(C(=O)OC)[C@@H]2N(Cc3ccccc3)c3ccccc3[C@@]23C[C@@H](C(=O)OC)N(S(=O)(=O)c2ccc(OC)cc2)C3=N1,-10.4
C=CCN1CCc2c(cc(O)c(O)c2Cl)C(c2cccc(C)c2)C1 (centres undefined),2.3
CCCCCCCCCCCCCCCC(=O)NCCc1ccc(O)c(O)c1,-3.8&-14.6
Nc1ncnc2c1[nH]c(=O)n2C1OC(CO)C(O)C1O (centres undefined),-0.3
COC(=O)c1ccc(C(NC(=O)OCc2ccccc2)/C(C)=C/[C@@H](C)C(=O)NCc2cccnc2)cc1 (some centres undefined),13.4
CCC/C=C/C(C)O (centres undefined),-5.4
C=CCOC(=O)N[C@@H](c1ccccc1)[C@@H](C)[N+](=O)[O-],-3.2
FC(F)(F)c1ccc(-c2noc(-c3ccccc3)c2I)cc1,-5.7
C=CCOC(=O)N[C@H](/C(C(=O)OC)=C(\C)NCc1ccccc1)c1ccc(C)cc1,-5.8
CCCC[C@@H]1C[C@H]1C(NC(=O)Cc1ccccc1)c1ccc(Cl)cc1 (some centres undefined),-2.5
CCOc1cccc2oc(-c3ccccc3Cl)cc(=O)c12,-18.9
COc1cc2nc(N3CCN(C(=O)OCc4ccccc4)C(C(=O)NC(C)(C)C)C3)nc(N)c2cc1OC (centres undefined),4.7

Some values from the results shown.
Result of FC(F)(F)c1ccc(-c2noc(-c3ccccc3)c2I)cc1 in GLA inh pH 4.5: -5.7
Result of CCCc1cc2c(n1CCc1ccc(Cl)cc1)C(C)C1CN(C(=O)c3ccccc3)C(C)(C(=O)OC)C21 (centres undefined) in GLA inh pH 4.5: -5.2

Following part:
SMILES,GLA inh pH 4.5
c1ccc(Nc2ncnc3ccc(-c4ccc5c(c4)OCO5)cc23)cc1,-4.7
CC(C)CN(C[C@@H](O)[C@H](Cc1ccccc1)NC(=O)O[C@H]1CCOC1)S(=O)(=O)c1ccc(N)cc1,1.7
COC(=O)c1ccc(C(NC(=O)OCc2ccccc2)/C(C)=C/[C@@H](C)C(=O)NCc2cc(C)on2)cc1 (some centres undefined),-19.7
O=c1cc(-c2ccccc2O)oc2c1ccc1ccccc12,-2.8
O=c1[nH]c(=O)n([C@@H]2C[C@H](O)[C@H](CO)O2)cc1C(F)(F)F,-3.2
C/C(=C\C[Si](C)(C)C)CC[C@H](O)C1=CCCCC1=O,-0.4
CCOC(=O)c1ncc2[nH]c3cccc(OC(C)C)c3c2c1C,-17.1
COC(=O)C1(C(=O)OC)Cc2conc2[C@H]1c1ccccc1,3.3&-0.1&1.3
CCCCCCCCCCCC(=O)O[C@H](CC(=O)O)C[N+](C)(C)C,1.2
CC[C@@H](C)[C@H]1O[C@]2(CC[C@@H]1C)C[C@@H]1C[C@@H](C/C=C(\C)[C@@H](O[C@H]3C[C@H](OC)[C@@H](O[C@H]4C[C@H](OC)[C@@H](O)[C@H](C)O4)[C@H](C)O3)[C@@H](C)/C=C/C=C3\CO[C@@H]4[C@H](O)C(C)=C[C@@H](C(=O)O1)[C@]34O)O2,-15.0
CCC(C)C1/C=C\CCCC(=O)N1Cc1ccc(C)cc1 (centres undefined),-10.3
NC(=S)NCCCC(N)C(=O)O (centres undefined),-0.9
CC(C)CCCC(C)C1CCC2C3CC(O)[C@@]4(O)CC(O)CC[C@@]4(C)C3CC[C@@]12C (some centres undefined),0.9
Cc1cc(O)c2c(c1O)C(=O)c1c(O)cc(C)c(O)c1C2=O,6.6
C#C[C@]1(O)CCC2C3CCC4=Cc5oncc5C[C@@]4(C)C3CC[C@@]21C (some centres undefined),0.1
CC(C)=CCC/C(C)=C/CO,-2.8
CCCCCCCCCCCCC/C=C\[C@@H](O)[C@@H](N)CO,-17.4
O=C1OC(CO)C(O)C(O)C1O (centres undefined),0.8
CC(=O)Oc1cc(-c2coc3cc(OC(C)=O)c(OC(C)=O)c(OC(C)=O)c3c2=O)cc(OC(C)=O)c1OC(C)=O,-1.7
COc1ccc2c(c1)C(=O)[C@H](OC(=O)Nc1ccc(OC(F)F)cc1)[C@@H](c1ccc(OC)c(Br)c1)O2,-2.6
COc1ccccc1-c1cncnc1NCCN1CCOCC1,-1.2
NC(=O)OC[C@H](O)COc1ccc(Cl)cc1,-4.5
Cc1cccc(CNc2ncnc3ccc(-c4ccccc4CN(C)C)cc23)c1,-17.4
CC(=O)N1CC[C@@H]2CC(=O)C[C@@H](C)[C@@H]21,1.3
CC1(C)CO[C@H](CC(=O)O)CN1,2.1
CC(C)OC(=O)[C@H]1O[C@H](CCCCOCc2ccccc2)[C@@H](C)[C@H]2O[C@H]21,-5.1
CN(C)C(=O)c1ccc(-c2nc(Nc3ccc(F)cc3)c3ccccc3n2)cc1,-4.6
COC(=O)C1=C(C(=O)OC)[C@@H]2N(C)c3ccc(OC)cc3[C@@]23C[C@@H](C(=O)OC)N(S(=O)(=O)c2ccc(C(F)(F)F)cc2)C3=N1,-3.0
CCCCc1cc2c(cn1)=C(OC(=O)c1ccc(Cl)nc1)C(C)(OC(=O)CC)C(=O)C=2 (centres undefined),6.8
O=c1[nH]c(-c2ccccc2O)nc2ccccc12,-4.6

Structural class, the entries above with a Cl atom (6)
SMILES,GLA inh pH 4.5
CCCc1cc2c(n1CCc1ccc(Cl)cc1)C(C)C1CN(C(=O)c3ccccc3)C(C)(C(=O)OC)C21 (centres undefined),-5.2
C=CCN1CCc2c(cc(O)c(O)c2Cl)C(c2cccc(C)c2)C1 (centres undefined),2.3
CCCC[C@@H]1C[C@H]1C(NC(=O)Cc1ccccc1)c1ccc(Cl)cc1 (some centres undefined),-2.5
CCOc1cccc2oc(-c3ccccc3Cl)cc(=O)c12,-18.9
NC(=O)OC[C@H](O)COc1ccc(Cl)cc1,-4.5
CCCCc1cc2c(cn1)=C(OC(=O)c1ccc(Cl)nc1)C(C)(OC(=O)CC)C(=O)C=2 (centres undefined),6.8

Additional entries:
SMILES,GLA inh pH 4.5
NCCC[C@@H](CC(=O)N[C@@H]1CCCC[C@H]1C(=O)N[C@H](CC(=O)N[C@@H](CCC(=O)O)CC(=O)O)Cc1c[nH]c2ccccc12)NC(=O)C[C@H](Cc1ccccc1)NC(=O)[C@@H]1CCCC[C@H]1N,-4.2
CC1(C)SC2C(NC(=O)C(NC(=O)N3CCNC3=O)c3ccccc3)C(=O)N2C1C(=O)O (centres undefined),1.5
O=C(/C=C/c1ccccc1)c1ccc(O[C@H]2OC(CO)C(O)C(O)C2O)cc1O (some centres undefined),-7.1
CC[N+](CC)(CC)CCOc1ccc(/C=C\c2ccccc2)cc1,-13.7
CCCn1c(-c2ccc(F)cc2)nc2c(NCCCN3CCCCC3C)nc(C)nc21 (centres undefined),-4.3
CCCCC/C=C\C/C=C\C/C=C\C/C=C\CCCCCC(=O)NCCc1ccc(O)c(O)c1,1.6
COc1cccc([C@@H]2Oc3ccc(OC)cc3C[C@H]2OC(=O)NS(=O)(=O)c2ccc(F)cc2)c1,-11.8
C=CCOC(=O)N[C@H](/C(C(=O)OC)=C(\C)NCc1ccccc1)c1ccc2c(c1)OCO2,5.9
NCCC[C@@H](CC(=O)N[C@@H]1CCNC[C@H]1C(=O)N[C@H](CC(=O)N[C@@H](CCC(=O)O)CC(=O)O)Cc1c[nH]c2ccccc12)NC(=O)C[C@H](CO)NC(=O)[C@@H]1CCCC[C@H]1N,-6.4
O=C(CCBr)N1CCN(C(=O)CCBr)CC1,-6.4
CC(C)[C@@H](CC(=O)N[C@@H]1CCNC[C@H]1C(=O)N[C@H](CC(=O)N[C@@H](CCC(=O)O)CC(=O)O)Cc1ccccc1)NC(=O)C[C@H](CO)NC(=O)[C@@H]1CNCC[C@H]1N,3.2
CC12CCCC(O)(C1)C1CC(C)(C)C1CC2 (centres undefined),-5.7
Cc1cccc(C(=O)O)c1O,4.6
CC(C)[C@@H](CC(=O)N[C@@H]1CCNC[C@H]1C(=O)N[C@H](CC(=O)N[C@@H](CCC(=O)O)CC(=O)O)Cc1c[nH]c2ccccc12)NC(=O)C[C@H](Cc1c[nH]c2ccccc12)NC(=O)[C@@H]1CNCC[C@H]1N,-0.8
